# RGS16-Gao: RGS16-Galphao interaction regulator (human). AID 1441. bead-based flow cytometry RGS16-Galphao binding, fluorescence; actives lie on both sides. binding response (% of control), % at 10 µM. 0.38% of 220,000 active;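 active means below 25% or above 175%, edge rows of some plates excepted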;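 further: Galphao activated by GDP with aluminum fluoride before binding; 100% = wells without compound and 0% = beads without RGS; some results beyond the cut were filed as inactive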
# Target sequence (O15492 whole entry, looked up): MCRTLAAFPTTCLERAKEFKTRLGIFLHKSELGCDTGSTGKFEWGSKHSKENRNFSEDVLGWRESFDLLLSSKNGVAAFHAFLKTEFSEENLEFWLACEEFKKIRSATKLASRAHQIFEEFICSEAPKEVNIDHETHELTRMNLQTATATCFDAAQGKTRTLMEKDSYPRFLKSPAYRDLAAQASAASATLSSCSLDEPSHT
# Target sequence (P09471 whole entry, looked up): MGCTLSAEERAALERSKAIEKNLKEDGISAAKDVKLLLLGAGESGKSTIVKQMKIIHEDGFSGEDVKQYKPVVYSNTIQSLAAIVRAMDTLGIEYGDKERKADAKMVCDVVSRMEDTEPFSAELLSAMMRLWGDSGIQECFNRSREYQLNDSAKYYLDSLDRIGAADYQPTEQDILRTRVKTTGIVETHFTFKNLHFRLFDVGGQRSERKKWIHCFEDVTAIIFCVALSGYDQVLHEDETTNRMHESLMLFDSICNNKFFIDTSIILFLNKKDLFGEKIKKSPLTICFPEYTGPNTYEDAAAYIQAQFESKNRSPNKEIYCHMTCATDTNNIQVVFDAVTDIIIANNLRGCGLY
# HSV replic up: HSV replication enhancement; HSV replication augmentation in cells, fold increase; maximum fold increase; 0.005% of 220,000 active;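 active means peak rise of 1.5-fold or more in the series; tested in PC3 cells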;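 further: first round at 10 µM; read as green reporter fluorescence; hits show the peak of a series up to 25 µM; 1 = signal of infected wells without compound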
# PKD1 inh: blocks activity of human protein kinase D1 | Q15139 | PKD1 kinase fluorescence polarization assay | inhibition, %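 (about 10 µM by stock and volumes)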 | 0.056% of 200,000 active;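 active means inhibition of 50% or more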;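 further: controls were vehicle for no effect and a reference inhibitor for full effect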
# Insulin prom inh: TRM-6 insulin promoter activity inhibition. TRM-6 cells (human fetal islet line), insulin promoter-eGFP reporter, imaging; reporter expression induced with tamoxifen. inhibition, % at 2 µM. 0.9% of 130,000 active;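 active means inhibition above the mean plus 3 SD, with well images judged a real hit on visual review, cut at about 60% in these data, passing the limit was not always enough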
# GALR2 ag: activates the human galanin receptor 2. GALR2-expressing cells, agonist activation read-out. activation, %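 (tested at 5 µM)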. 0.48% of 140,000 active;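 active means above mean plus 3 SD of all compounds, about 5% in these data, not always enough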;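 further: 0% = vehicle buffer wells and 100% = reference agonist at full effect; tested in CHO reporter cells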
# Target sequence (O43603 whole entry, looked up): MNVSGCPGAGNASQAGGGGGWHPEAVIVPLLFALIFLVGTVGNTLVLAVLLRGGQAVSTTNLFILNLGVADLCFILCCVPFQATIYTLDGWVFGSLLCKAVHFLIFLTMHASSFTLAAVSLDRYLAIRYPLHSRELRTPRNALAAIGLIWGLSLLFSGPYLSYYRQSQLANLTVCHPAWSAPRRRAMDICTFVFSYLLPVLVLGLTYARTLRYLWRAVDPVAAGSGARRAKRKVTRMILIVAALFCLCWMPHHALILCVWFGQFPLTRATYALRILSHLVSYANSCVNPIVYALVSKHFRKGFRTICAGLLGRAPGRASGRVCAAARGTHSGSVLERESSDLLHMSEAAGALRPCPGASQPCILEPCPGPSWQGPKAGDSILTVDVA
# Insulin prom inh cell count: recorded beside Insulin prom inh, whose call it bears; normalized cell count, %; measured here: cell count, toxicity; reference of the scale not given here;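 cells exposed to compound for 48 h; stained nuclei by imaging scaled within each plate; lower means fewer cells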
# HSV replic up primary fold: further read-out of HSV replic up, marked with its call; fold increase; compound at 10 µM; measured here: primary screen fold increase 10 uM; tested in PC3 cells;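 GFP signal in the first replicate; 1 = infected wells without compound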
# Starred values were filed as active, the others as inactive; i = inactive; · = no result given.
SMILES,RGS16-Gao,HSV replic up,HSV replic up primary fold,PKD1 inh,Insulin prom inh,Insulin prom inh cell count,GALR2 ag
COC(=O)CSc1nc(N)c(NC(=O)c2ccc(OC)c(OC)c2)c(=O)[nH]1,104.0,i,0.92,-1.3,·,·,-2.5
Cc1cc(S(=O)(=O)N2CCN(Cc3ccc4c(c3)OCO4)CC2)cc(C)c1N1CCCC1=O,146.2,i,1.09,-10.0,·,·,-1.1
CCOC(=O)N1CCN(C(=O)c2nn(-c3cc(OC)cc(OC)c3)c(=O)c3ccccc23)CC1,104.7,·,·,5.5,·,·,-2.2
COc1cccc(-n2c(SCC(N)=O)nnc2-c2c[nH]c3ccccc23)c1,79.0,i,0.92,3.1,·,·,-2.0
CCCC(=O)OCCNc1cc(SCCC(=O)OC)c2nonc2c1[N+](=O)[O-],99.6,i,0.98,4.3,33.3,74.9,-0.8
Cc1cc(NC(=O)Cc2ccccc2)c2ccccc2n1,101.3,i,0.91,-4.0,44.4,87.9,·
O=C(C1=C[C@H](c2ccc3c(c2)OCO3)C[C@H](OCCCCO)O1)N1CCOCC1,97.1,i,0.91,5.9,·,·,·
Cc1ccccc1NC(=S)N(C)CCc1ccccn1,150.8,i,1.07,-0.1,·,·,-0.3
CCOC(=O)c1nnn2c1nc(Nc1cccc(C(F)(F)F)c1)c1ccccc12,97.0,i,0.66,·,·,·,·
Nc1cnc(Br)cc1Br,103.7,i,0.98,-6.5,-93.1,153.1,-0.6
CCOC(=O)C(C)c1ccc2cc(OC)ccc2c1 (stereo not drawn),101.8,i,1.03,-4.7,0.0,128.6,-0.6
COc1cccc(OC)c1OCCCOc1c(OC)cccc1OC,97.8,i,1.03,-1.6,-51.4,86.8,-4.7
Cc1cc(C(=O)COC(=O)CNS(=O)(=O)c2ccc3ccccc3c2)c(C)n1-c1ccccc1,79.8,i,0.98,-7.6,-21.2,67.6,0.2
O=C(Cc1cccs1)NCc1ccncc1,155.1,·,·,2.9,·,·,-1.1
O=[N+]([O-])c1ccc(/C=N/NC(=S)Nc2ccccc2C(F)(F)F)o1,112.5,i,1,4.6,·,·,-0.3
NC(=O)CSc1nnc(-c2ccc(S(=O)(=O)N3CCCC3)cc2)n1Cc1ccco1,256.8,i,1.14,3.6,-9.1,97.0,0.6
O=C(CN1c2ccccc2Sc2ccccc21)NNC(=S)Nc1ccc(Cl)cc1Cl,108.0,·,·,-17.1,7.1,56.9,-2.1
Nc1nc(Nc2ccc(Cl)cc2)nc(NCc2ccco2)c1[N+](=O)[O-],105.8,i,0.83,·,·,·,·
COc1ccccc1NC(=O)Nc1c(C)nn(C)c1C,102.9,i,1.06,2.5,·,·,·
COc1ccc2[nH]c3nc(SCc4nnc(-c5ccccc5)o4)nnc3c2c1,97.3,i,0.83,-8.1,·,·,-0.5
CC(C)(C)c1ccc(C(=O)NN2C(=O)CSC2=S)cc1,105.1,i,0.98,·,·,·,·
CCOC(=O)C1(CCc2ccccc2)CCN(C2Cc3ccccc3C2)CC1,101.4,i,1.05,8.3,-15.4,81.9,·
Cc1ccc(-c2noc(C3CCCN(C(=O)c4ccccc4)C3)n2)o1 (stereo not drawn),95.7,i,1.29,4.3,16.2,111.5,-0.8
COc1ccc(Cl)cc1NC(=O)c1c(-c2ccccc2)noc1C,102.3,i,1.06,-10.0,-473.3,24.8,-1.9
CC1C/C(=N\NC(=O)c2ccc([N+](=O)[O-])cc2)CC(C)(C)C1 (stereo not drawn),99.8,i,0.94,·,·,·,·
CC(C)CC(=O)N1CCN(Cc2ccccc2[N+](=O)[O-])CC1,104.9,i,0.93,7.5,11.1,66.7,·
CCC1=NC(c2ccccc2)N(O)C1(C)C (stereo not drawn),73.0,i,1.03,-1.7,-21.9,63.0,-2.5
CC1=C(C(=O)NC2CCCC(C)C2C)C2(CCCCC2)OC1=O (stereo not drawn),106.3,i,0.82,-10.8,·,·,-0.5
CCOC(=O)C1=C(C)NC(C)=C(C(=O)OCC)C1C(=O)OCC(=O)NC,77.6,i,1.01,-5.6,-25.0,108.7,·
Cc1nc(N2CCOCC2)c2c(C)c(C(=O)Nc3ccc(F)cc3Cl)sc2n1,103.7,i,0.84,0.9,-50.0,130.7,·

# Given with tabs: five of the compounds above
structure	RGS16-Gao	HSV replic up	HSV replic up primary fold	PKD1 inh	Insulin prom inh	Insulin prom inh cell count	GALR2 ag
O=C(Cc1cccs1)NCc1ccncc1	155.1	·	·	2.9	·	·	-1.1
O=[N+]([O-])c1ccc(/C=N/NC(=S)Nc2ccccc2C(F)(F)F)o1	112.5	i	1	4.6	·	·	-0.3
NC(=O)CSc1nnc(-c2ccc(S(=O)(=O)N3CCCC3)cc2)n1Cc1ccco1	256.8	i	1.14	3.6	-9.1	97.0	0.6
O=C(CN1c2ccccc2Sc2ccccc21)NNC(=S)Nc1ccc(Cl)cc1Cl	108.0	·	·	-17.1	7.1	56.9	-2.1
Nc1nc(Nc2ccc(Cl)cc2)nc(NCc2ccco2)c1[N+](=O)[O-]	105.8	i	0.83	·	·	·	·

# Continuation:
SMILES,RGS16-Gao,HSV replic up,HSV replic up primary fold,PKD1 inh,Insulin prom inh,Insulin prom inh cell count,GALR2 ag
CSc1nnc2c(n1)c(C)nn2-c1ccc(C)cc1,88.9,i,0.98,-3.4,61.9,118.7,-1.7
CCOC(=O)c1cc(-c2nnc(SCC(=O)Nc3ccc(F)cc3)o2)c(C)nc1C,97.2,i,0.99,-9.4,·,·,-1.7
COc1ccccc1N1CCN(C(=O)CSc2ccc3c(C)cc(C)nc3n2)CC1,99.7,i,0.96,4.6,23.7,76.7,2.1
COC(=O)c1cc(NC(=O)CN2C(=O)CSC2=O)ccc1Cl,111.1,i,1.06,-7.9,-9.1,75.5,-1.6
COc1ccc(CCNC2CCN(C)CC2)cc1OC,121.1,i,1.04,-4.6,15.2,108.5,-1.3
Cc1cccnc1NC(=S)Nc1ncccc1C,98.7,i,1.27,·,·,·,·
Clc1cc(Br)ccc1OCCN1CCOCC1,109.2,i,1.03,-12.3,-29.6,104.4,0.6
CC12CC3CC(C)(C1)CC(NCc1ccncc1)(C3)C2,103.8,i,1.15,-0.1,38.9,52.8,·
CCc1ccccc1NC1=NCC(=O)N1C1CCCCC1,104.9,·,·,-4.2,22.2,92.4,-0.5
O=C(COc1ccc(Br)cc1CNCCCN1CCOCC1)Nc1ccccc1,107.1,i,0.76,7.1,·,·,0.0
CSCCC1NC(=O)N(CC(=O)Nc2ccc(N3CCCCC3)cc2)C1=O (stereo not drawn),158.1,i,0.993,-9.8,·,·,-1.7
COC(=O)c1ccccc1NC(=O)CSc1nc2ccccc2c(=O)[nH]1,103.0,i,0.8,-2.1,-5.0,118.6,0.3
CCC(C)[C@H](NC(=O)N1CCCCCC1)C(=O)OC (stereo partly drawn),89.1,i,1.04,·,·,·,·
CCn1c(/C=C/c2c(C)[nH]c3ccccc23)nc2ccccc2c1=O,112.3,i,0.67,-6.6,0.0,50.6,7.3*
CCOc1nc(N2CCOCC2)nc(C)c1[N+](=O)[O-],103.6,i,1.03,2.5,-63.3,100.0,-0.4
COc1ccc(C(=O)CSc2nnc(-c3cccs3)n2-c2ccccc2)cc1,111.5,i,1.05,-0.6,-92.3,101.3,-1.0
Cc1ccc([N+](=O)[O-])cc1NC(=O)Cc1cccs1,98.0,i,0.89,-6.7,56.2,77.5,·
Cc1ccc(NC(=O)CSc2nc3ccccc3c(=O)n2Cc2cccs2)cc1,42.3,i,0.91,4.3,·,·,-2.6
CCn1c(C)nc2cc(C(=O)NNC(=S)Nc3ccc(F)cc3)ccc21,94.0,i,0.97,·,·,·,·
COc1ccc2c(c1)c(=O)oc1cc3oc(C)c(C)c3cc12,98.3,·,·,-4.9,-20.0,182.9,-0.2
COc1ccc(N2C(=O)C(O)C2c2ccc(C)cc2)cc1 (stereo not drawn),105.9,i,0.99,-3.9,42.9,195.9,-2.7
O=C(C[n+]1cccc(CNC(=O)c2ccc(OC(F)F)cc2)c1)Nc1cc(C(F)(F)F)ccc1Cl,63.9,i,1.04,-1.2,-26.5,50.9,-1.8
Cc1ccc(C(=O)N2CCOCC2)c(F)c1F,120.3,i,0.97,6.9,·,·,·
CCOC(=O)NC(NC(=S)Nc1ccccc1[N+](=O)[O-])C(Cl)(Cl)Cl (stereo not drawn),328.5,i,0.76,-5.6,9.7,110.3,-2.7
O=c1c2sccc2nc(SCc2ccc([N+](=O)[O-])cc2)n1Cc1ccccn1,70.1,i,0.99,7.7,-26.5,86.0,1.1
Cc1nc2cc(NC(=O)CSc3nc4c(C)cccc4cc3C#N)ccc2s1,98.9,·,·,1.3,·,·,-1.9
CCC1COC(c2cccn2Cc2ccc(Cl)cc2)=N1 (stereo not drawn),107.3,i,0.99,-1.5,18.2,84.2,·
Cc1ccc(C2CCN(C(=O)Nc3ccc(F)cc3)C2)cc1 (stereo not drawn),95.6,i,0.91,-5.0,·,·,·
O=S(=O)(c1ccc(F)cc1)n1ccc2cccnc21,108.2,i,0.77,-2.3,50.0,119.9,-0.1
Cc1csc(SCC(=O)Nc2cccc(S(=O)(=O)N3CCOCC3)c2)n1,98.0,i,1.01,-7.4,-42.9,87.1,·
O=C(Nc1cccc(C(=O)O)c1)/C(=C/c1ccc2c(c1)OCO2)NC(=O)c1cccc(Br)c1,115.9,i,0.93,-2.7,53.3,113.2,·
CCCC(=O)Nc1ccc(S(=O)(=O)N2CCCC2)cc1,97.6,i,0.93,0.4,·,·,-0.2
CCOC(=O)c1ccc2c(c1)nc(COc1ccc3ccccc3c1)n2CC,100.2,i,0.85,-1.7,-29.6,77.5,-2.1
COc1ccccc1NC(=S)N1CCOCC1,106.0,i,1.07,-1.6,-35.3,108.7,-1.0
CCOP(=O)(OCC)c1nc(-c2cccc3ccccc23)oc1NCc1ccc(OC)cc1,101.0,i,0.95,0.2,-78.6,105.6,·
COc1cc(C)c(Cl)cc1S(=O)(=O)NCCCN1CCOCC1,98.3,i,1.13,-2.6,39.1,110.3,-4.1
O=C(CCCn1c(=O)oc2ccccc21)N1CCN(c2ccc(F)cc2)CC1,110.3,i,1.2,·,·,·,·
CCOC(=O)C(C)n1cnc2c1c(=O)[nH]c(=O)n2C (stereo not drawn),99.5,i,0.76,-4.4,60.0,100.0,-0.6
CC(C)Oc1cccc(C(=O)C2CCCN(Cc3cccn3-c3ccccn3)C2)c1 (stereo not drawn),102.8,i,0.79,0.8,·,·,·
CC(=O)NCCc1ccc(S(=O)(=O)Nc2cccnc2)cc1,97.7,i,0.76,-10.8,-85.2,129.7,-1.5
Cc1ccc(Cl)cc1NC(=O)C(NS(=O)(=O)c1cccs1)c1ccccc1 (stereo not drawn),111.9,i,1.03,-3.0,-25.9,60.6,-0.1
O=C(COc1ccccc1)Nc1ccccc1N1CCN(c2ccccc2)CC1,108.8,i,0.89,-2.4,5.7,205.0,-0.4
CCOc1ccc(S(=O)(=O)Nc2ccc(S(=O)(=O)N3CCOCC3)cc2)cc1,104.4,i,1.05,2.6,-10.3,101.1,0.4
COc1ccccc1/C=C/C=N/n1c(-c2ccc(Cl)cc2)n[nH]c1=S,94.8,i,1.02,·,·,·,·
O=C(Nc1cc(F)cc(F)c1)c1ccc(NCCCN2CCCCCC2)c([N+](=O)[O-])c1,100.8,i,0.92,-4.4,0.0,150.6,·
O=C(NNC1CC(=O)N(c2ccc(Br)cc2)C1=O)c1cccnc1 (stereo not drawn),103.9,i,1.02,-0.8,-81.8,50.0,·
O=C(Nc1ccon1)c1cccc(C(F)(F)F)c1,92.2,i,0.9,1.0,34.4,92.9,-1.3
Cc1cc(Cl)c(S(=O)(=O)Nc2ccc3c(c2)OCCO3)cc1OCC(N)=O,100.0,i,0.91,0.4,-6.1,60.2,-0.3
COc1ccc(CNC(=O)C(CCSC)NS(=O)(=O)c2ccccc2F)cc1 (stereo not drawn),99.6,i,0.89,-3.5,·,·,·

# An excerpt from above, limited to HSV replic up and PKD1 inh.
structure	HSV replic up	PKD1 inh
CCn1c(/C=C/c2c(C)[nH]c3ccccc23)nc2ccccc2c1=O	i	-6.6
Cc1csc(SCC(=O)Nc2cccc(S(=O)(=O)N3CCOCC3)c2)n1	i	-7.4
COc1cccc(-n2c(SCC(N)=O)nnc2-c2c[nH]c3ccccc23)c1	i	3.1
COc1ccccc1N1CCN(C(=O)CSc2ccc3c(C)cc(C)nc3n2)CC1	i	4.6
CCCC(=O)OCCNc1cc(SCCC(=O)OC)c2nonc2c1[N+](=O)[O-]	i	4.3
CC1=C(C(=O)NC2CCCC(C)C2C)C2(CCCCC2)OC1=O (stereo not drawn)	i	-10.8
O=C(CN1c2ccccc2Sc2ccccc21)NNC(=S)Nc1ccc(Cl)cc1Cl	·	-17.1

# Source: PubChem BioAssay (several laboratories)
